Autofluor counter: flagged as autofluorescent in microsphere protease counterscreen; 3.1% of 360,000 active; compound autofluorescence counterscreen, microsphere flow cytometry; hits give high values; fluorescence intensity (no concentration beside the values);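 active = at least 3 SD above the mean of all compounds, about 16000 in these data; inconclusive = too few beads counted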;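 also: 100 nL of 1 mM stock went into each well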
Sa ugtP lethal: compounds lethal to S. aureus RN4220 ugtP deletion mutant | OD600 growth, 16 h; some inactives read as strong as hits | growth inhibition, % (no concentration beside the values) | 0.54% of 330,000 active | AID 1259309;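 active = z-score under -3 and OD600 up to 0.15 on both plates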;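 also: plate controls were untreated wells for no effect and antibiotic for full effect; wells of about 80 µL received 100 nL stock; the first replicate is given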
BJeLR viability: kills HRASV12-expressing BJeLR cells; BJeLR (HRASV12) viability, CellTiter-Glo ATP luminescence, 48 h; reference of the scale not given here; inhibition, % (concentration not given with the values); 0.17% of 300,000 active;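 active = replicate mean above 50%; inconclusive = above 50% but judged a plate artefact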;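 also: 50 nL library stock added to about 25 µL; numbers are from one replicate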
Mtb hypoxia rep: Mtb hypoxia fluorescent reporter inhibition; M. tuberculosis hypoxia-regulated fluorescent reporter, fluorescence; fluorescence inhibition, % (no concentration beside the values); 0.1% of 300,000 active;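 active = 35 to 45% if threefold the growth effect, above 45% if 1.5-fold the growth effect; inactive = the rest, general growth blockers included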;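 also: wells of about 50 µL received 100 nL stock; 0% = vehicle wells and 100% = reference inhibitor wells; whole bacteria with a GFP reporter of the hypoxia response; strong numbers were not always called active; many hits fall short of the cut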
RN4220 kill: S. aureus RN4220 growth inhibition; OD600, 16 h; inhibition, % (test concentration not listed); 0.33% of 330,000 active; AID 1259311;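 active = z-score of -3 or lower and OD600 up to 0.18 on both plates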;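 also: plate controls were untreated cells for no effect and reference antibiotic for full effect; stock transfer was 100 nL into about 80 µL; one replicate is shown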
PrP 5UTR inh: inhibition of PrP 5' UTR reporter expression; cell-based PrP 5' UTR mRNA reporter, plate reader; inhibition, % (test concentration not listed); 0.35% of 340,000 active; AID 488862;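 active = every replicate at 50% or more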;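 also: 0 = median of the neutral control wells; tested in H4 reporter cells; numbers are from one replicate; inactives centre near -14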
Mtb hypoxia rep growth: recorded beside Mtb hypoxia rep, whose call it bears; growth inhibition, %; measured here: M. tuberculosis growth (absorbance);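 0% = vehicle and 100% = reference antibiotic; read after six days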
The depositor's hits bear a star; u = inconclusive; x = no result given; & = joins results of further samples.

Compound	Mtb hypoxia rep	Autofluor counter	RN4220 kill	Mtb hypoxia rep growth	Sa ugtP lethal	BJeLR viability	PrP 5UTR inh
CCC(C)C(NC(=O)c1ccc(Cl)cc1)C(=O)Nc1cccnc1 (configuration not stated)	8	3155	4.3	7	7	-1	-4
C=CCNC(=O)CN(c1ccccc1OCC)S(=O)(=O)c1ccc(C)cc1	8	7121	4.5	3	-1	-7	-14
Cc1ccc(CNC2=NCCCCC2)n1C	5	8764	2.1	11	1	6	-14
CCOC(=O)c1ccc2c(c1)nc(COc1ccc(OC)cc1)n2CC	3	16133*	6.0	4	6	0	-2
CC(/C=C/c1ccc(O)cc1)=N/O	x	5178	x	x	x	-5	-23
O=C(Nc1ccccc1)N1CCC(c2nc(-c3ccc(S(=O)(=O)N4CCOCC4)cc3)no2)CC1	1	10013	-5.3	2	1	19	-8
CC(=O)N(C)c1ccc(NC(=O)Nc2ccc(C)c(C)c2)cc1	10	2104	1.5	5	-7	3	-30
CC[n+]1ccc(C)c2cc(S(=O)C(F)(F)F)ccc21 (configuration not stated)	2	4922	5.2	5	-2	-7	-26
O=C(CSc1nnc(NC(=O)c2c(F)cccc2F)s1)NCC1CCCO1 (configuration not stated)	8	x	4.0	-3	8	-2	-13
O=C(CN(Cc1cccs1)C(=O)CNS(=O)(=O)c1ccccc1)NC1CCCC1	12	4813	6.4	7	14	-1	-4
CCOc1ccc(CNC(=O)CCCc2cn(C)c3ccccc23)cc1OC	3	5620	-0.7	6	5	-5	2
NC1CCc2cc(O)c(O)cc2C1 (configuration not stated)	9	4447	5.5	1	2	x	10
CCC(C)NC(=O)c1ccc(CS(=O)(=O)Cc2ccc(Cl)cc2)o1 (configuration not stated)	2	23433*	-4.0	9	-5	12	-6
COc1ccc(S(=O)(=O)Nc2ccc3c(c2)n(C)c(=O)n3C)cc1C	7	3087	4.2	-4	13	1	-34
Cc1ccc2[nH]c(=O)c(Cc3ccccc3)c(O)c2c1	-12	4396	0.4	5	-9	2	-9
COC(=O)c1cc(NC(=O)Cc2ccc(OC)cc2)cc(C(=O)OC)c1	-1	3212	-5.8	6	-13	-7	-29
Cc1ccc(Nc2nc(NCCCN3CCOCC3)nc(N)c2[N+](=O)[O-])cc1	x	10815	x	x	x	-10	-8
O=S(=O)(NC1CCC(NS(=O)(=O)c2c(F)cccc2F)CC1)c1ccc2c(c1)OCCO2 (configuration not stated)	20	4558	3.2	7	4	x	-4
CCN(CC)c1ccc(/C=C2\SC(N)=NC2=O)cc1	-7	4105	3.5	9	-7	4	-51
O=C(OCc1ccccc1)N1CCOCCOCCN(C(=O)OCc2ccccc2)CCOCCOCC1	1	8766	4.2	-4	-1	7	-22
COc1ccc(/C=C2\N=C(c3ccccc3)NNC2=O)cc1	x	3709	x	x	x	9	-25
CC1(C)CC(=O)C(C(=O)CCCCC(=O)C2C(=O)CC(C)(C)CC2=O)C(=O)C1	2	5317	3.3	9	5	-1	-14&-31
CC1CCN(S(=O)(=O)c2ccc(NC(=O)CNC3CCCCC3)cc2)CC1	11	3065	1.3	8	1	-4	-5
CCOC(=O)C1C2COc3ccc(Cl)cc3C2N2C(=O)C(CO)NC(=O)[C@@]12C (some centres not stated)	12	x	5.3	7	1	x	x
Nc1nc(N2CCOCC2)nc(N(c2ccccc2)c2ccccc2)n1	-5	5737	2.7	-4	9	12	-13
COc1cccc(C=NN(C)C2=NS(=O)(=O)c3ccccc32)c1O	-4	x	4.7	-3	2	x	x
O=C(CCl)N(C1CCCC1)C1CCS(=O)(=O)C1 (configuration not stated)	17	3467	-2.7	23	6	-4	-6
CCOc1ccc(C(=O)COC(=O)Cn2cnc3c2c(=O)n(C)c(=O)n3C)cc1	7	6401	3.0	4	8	x	-13
COC(=O)C(C)NC(=O)C1CCCN1C(=O)CNC(=O)OCc1ccccc1 (configuration not stated)	7	3620	-0.1	8	8	0	-6
CC(C)C[C@H](NC(=O)N1CCn2c1nc1ccccc12)C(=O)NC1CC1	10	4731	-0.3	0	2	8	2
COc1ccc(N2C(=O)NC(NC(=O)c3cccnc3)(C(F)(F)F)C2=O)cc1 (configuration not stated)	-4	4652	5.7	-6	2	-2	-30
CC(C)OC(=O)C(CC(=O)O)NCc1ccccc1 (configuration not stated)	7	2261	4.6	4	3	15	-9
CCN(CC)C(=O)c1cc2c(=O)n3cccc(C)c3nc2n1C	19	9555	7.5	23	-5	-4	-13
COc1cc(C)c(S(=O)(=O)N2CCN(C)CC2)cc1C	x	3270	-0.1	x	3	-3	-2
CCOC(=O)c1c(C)[nH]c(N=Nc2ccc(OC)cc2)c1C	-2	4344	9.8	2	0	5	-116
CC(C)=CCC/C(C)=C/C=N/NC(=O)c1ccc([N+](=O)[O-])cc1	x	12362	x	x	x	-2	-6
CCC(C)(C)NC(=O)C(Sc1ccccc1)c1ccccc1 (configuration not stated)	15	4582	7.3	9	1	-4	-18
O=C(O)Cc1c(-c2ccccc2)c2cc(Cl)ccc2[nH]c1=O	3	2964	-0.3	-7	-3	-2	-7
CCOc1cc(C2/C(=C(/O)c3ccc(OC)cc3)C(=O)C(=O)N2CC2CCCO2)ccc1O (configuration not stated)	-2	x	3.0	6	3	0	x
O=C(COc1ccc(Br)cc1)NNC(=O)c1cc(S(=O)(=O)N2CCOCC2)ccc1Cl	10	x	4.6	11	3	x	-1
O=C(NN=Cc1c(F)c(F)c(F)c(F)c1F)c1cccc(S(=O)(=O)N2CCOCC2)c1	x	x	8.6	x	2	x	x
CCCCNC1=NCCS1	-3	4708	0.0	6	11	-26	-15
CN(C)c1ccc(C(=S)N2CCN(c3ccccc3)CC2)cc1	x	4819	2.9	x	6	1	-28
CCOC(=O)C1(CCOc2ccccc2)CCN(Cc2cccc(OCCO)c2)CC1	7	3844	-0.9	-2	6	1	-1
COc1cccc(NC(=O)CC2C(=O)NC3CCCCC3N2C(=O)c2ccccc2)c1 (configuration not stated)	x	9850	x	x	x	-6	-19
O=C(CSc1ncn(-c2ccccc2)n1)c1cccs1	x	5162	3.3	x	6	4	-87
NC(=NN=Cc1cccs1)SC1CC(=O)N(c2cccc([N+](=O)[O-])c2)C1=O (configuration not stated)	10	x	8.6	0	-9	x	x
CCc1ccc(C(C)NC(=O)COC(=O)c2ccc(-n3cnnn3)cc2)cc1 (configuration not stated)	8	8970	1.4	-2	1	x	-15
CCOc1ccc(CN(C)C(=O)CNC(=O)c2sc3ccccc3c2Cl)cc1	4	u	-4.7	14	5	x	-19
COc1ccc(/C=C/C(=O)NCCc2nc3ccccc3[nH]2)cc1	7	4212	2.5	8	-8	-2	-17

Next section
Compound	Mtb hypoxia rep	Autofluor counter	RN4220 kill	Mtb hypoxia rep growth	Sa ugtP lethal	BJeLR viability	PrP 5UTR inh
COc1cc2c(=O)c(-c3ccc(O)cc3)coc2cc1OC1OC(CO)C(O)C(O)C1O (configuration not stated)	x	3870	x	x	x	9	-9
Nc1ccc(Cc2nc3c(ccc4ccccc43)[nH]2)cc1	12	12981	6.1	10	2	1	-70
O=C(O)c1nn(Cc2csc(-c3ccccc3)n2)c(=O)c2ccccc12	4	3070	5.5	-2	8	2	-10
CCOc1cc(-c2noc(CCC(=O)NCC3CCCO3)n2)ccc1OC (configuration not stated)	-3	3557	0.6	-3	9	-8	-26
CCOC(=O)c1c(NC(=O)COC(=O)C2CCC2)sc(C(=O)N(C)C)c1C	-3	7915	1.9	2	0	x	5
CCN1C(=O)C(O)(CC(=O)/C=C/C=C/c2ccccc2)c2ccccc21 (configuration not stated)	x	3410	-2.3	x	0	-7	-14
CN1C(=O)C(C)(C)c2cc(S(=O)(=O)N3CCCC(C(=O)Nc4ccc(Cl)cc4)C3)ccc21 (configuration not stated)	8	6279	5.8	2	12	7	-19
COCc1[nH]nc2c1C1(CCSCC1)C(C#N)=C(N)O2	-1	9850	-0.3	12	2	8	-7
Cc1ccccc1OCC(=O)NCCN(C)C	x	2510	-0.9	x	-1	10	-2
CCN(CC)S(=O)(=O)c1ccc(-c2nnc(SCC(=O)c3ccc(OC)cc3)o2)cc1	-3	6465	-1.7	4	-1	7	5
Cc1cc(-c2nnc(SCC(=O)Nc3ccc(F)cc3)n2N)n[nH]1	6	5535	4.0	9	6	-7	-4
Cc1cccc(-n2ncc3c(NCc4ccc5c(c4)OCO5)ncnc32)c1	13	9299	-3.0	13	-2	-6	-21
Clc1ccc(N2CCN(Cc3ccco3)CC2)cc1	6	3960	3.4	5	9	4	-6
CCOCC(=O)Nc1cccc(NC(C)=O)c1	x	4664	-1.2	x	0	-2	-7
Cc1ccc(CC2CC(=O)N(c3ccncc3)C2=O)cc1 (configuration not stated)	8	9571	-0.7	-4	3	1	-21
CCS(=O)(=O)NCc1nnc2n1-c1ccc(Br)cc1C(c1ccccc1Cl)=NC2	4	4519	-2.6	-1	2	2	-22
COc1ccccc1S(=O)(=O)Nc1cccc(-c2nnc3n2CCCCC3)c1	-1	2630	6.5	-4	-6	4	-92
COc1ccc(CSC2=NCCN2)cc1Br	4	4127	3.6	4	9	-8	-9
Cc1cnc(C(=O)OCC(=O)c2ccc(Br)s2)cn1	6	5989	0.0	1	5	7	-44
CN1CCN(S(=O)(=O)c2cccc(C(=O)O)c2)CC1	0	4220	3.3	4	2	13	-31
CC(NC(=O)c1ccco1)C(=O)N1CCN(C(c2ccccc2)c2ccccc2)CC1 (configuration not stated)	4	6041	-3.4	8	14	-2	-11
Cc1ccc(OC(=O)Nc2ccccc2)cc1	0	4235	-1.0	-2	4	-7	-39
Cc1ccsc1C=Nn1cnnc1	7	x	4.5	0	0	x	x
CC1(C)C(CC(=O)O)CC1C(=O)O (configuration not stated)	8	3942	3.4	-2	2	x	-23
COc1ccc(CNS(=O)(=O)c2ccc(F)cc2Br)cc1	6	3995	3.7	8	-1	x	-13
Cc1c(N=Cc2ccncc2)c(=O)n(-c2ccccc2)n1C	x	5220	-4.0	x	-5	-5	-12
N/C(=N\OC(=O)c1cc(Br)ccc1Cl)c1cccnc1	x	4516	x	x	x	-11	-56
Cc1nn(Cc2ccccc2)c(Cl)c1/C=N/NC(=O)CNc1cccc(C(F)(F)F)c1	x	2506	x	x	x	16	1

Among those listed so far, these have a CF3 group:
Compound	Mtb hypoxia rep	Autofluor counter	RN4220 kill	Mtb hypoxia rep growth	Sa ugtP lethal	BJeLR viability	PrP 5UTR inh
CC[n+]1ccc(C)c2cc(S(=O)C(F)(F)F)ccc21 (configuration not stated)	2	4922	5.2	5	-2	-7	-26
COc1ccc(N2C(=O)NC(NC(=O)c3cccnc3)(C(F)(F)F)C2=O)cc1 (configuration not stated)	-4	4652	5.7	-6	2	-2	-30
Cc1nn(Cc2ccccc2)c(Cl)c1/C=N/NC(=O)CNc1cccc(C(F)(F)F)c1	x	2506	x	x	x	16	1

Bioassay records: PubChem, several laboratories
